HNF4A DNA FP – change in binding of human HNF4 alpha to DNA. HNF4a-FITC DNA binding, fluorescence polarization, 1 h. activity change, % at 10 µM. 360,000 compounds, 0.3% hits; in the data active means activity change above about 30%, passing the limit was not always enough;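 further: controls were the assay level and a saturating level of protein; the project sought stronger binding though the title names inhibitors; some compounds called inactive have numbers as strong as hits; positive values seem to mean higher polarization but the record does not say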
Vif A3G – inhibitors of Vif binding to APOBEC3G peptide, primary screen, biochemical, TR-FRET, GST-Vif 1-94, biotin-A3G peptide, dose response retest (AID 1117319). TR-FRET GST-Vif / biotin-A3G peptide binding; higher % means a stronger effect; test concentration not given here; strong numbers were not always called active. inhibition, %; hits with a dose series show IC50 in µM. 260,000 compounds, 0.57% hits;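 active means above the screen mean plus three standard deviations and confirmed in dose response; inconclusive means results disagree or hit not tested in dose response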;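 further: Vif residues 1-94 fused to GST binding biotinylated APOBEC3G peptide 110-148; 0% = full assay without inhibitor and 100% = GST in place of GST-Vif; retest series ran down from 100 µM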
LANA-H2A inh – blocks KSHV LANA binding to histone H2A/H2B. Q9QR71. inhibition, % (test concentration not listed). cell-free LANA-H2A/H2B peptide, fluorescence polarization. 320,000 compounds, 0.6% hits; in the data active means inhibition mostly above about 10%, no sharp cut-off; inactive means mostly below about 6.7%;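 further: stock transfer was 7.5 nL into about 10 µL; 0% = median of vehicle wells and 100% = median of positive control wells; one replicate is shown; the record names a cut of 25% in any replicate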
B2AR ag – human beta-2 adrenergic receptor agonism by FAP; P07550; Am2.2-beta2AR cells, FAP receptor internalization, flow cytometry; reference of the scale not given here; response, % (concentration not given with the values); 340,000 compounds, 0.43% hits;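 active means response above a set limit, near 3 SD of response in nonfluorescent compounds, cut at about 42% in these data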;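 further: stock transfer was 100 nL into about 11 µL; a reference agonist was the positive control; negative values mostly stem from fluorescent compounds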
Target sequence (P07550 whole entry, looked up): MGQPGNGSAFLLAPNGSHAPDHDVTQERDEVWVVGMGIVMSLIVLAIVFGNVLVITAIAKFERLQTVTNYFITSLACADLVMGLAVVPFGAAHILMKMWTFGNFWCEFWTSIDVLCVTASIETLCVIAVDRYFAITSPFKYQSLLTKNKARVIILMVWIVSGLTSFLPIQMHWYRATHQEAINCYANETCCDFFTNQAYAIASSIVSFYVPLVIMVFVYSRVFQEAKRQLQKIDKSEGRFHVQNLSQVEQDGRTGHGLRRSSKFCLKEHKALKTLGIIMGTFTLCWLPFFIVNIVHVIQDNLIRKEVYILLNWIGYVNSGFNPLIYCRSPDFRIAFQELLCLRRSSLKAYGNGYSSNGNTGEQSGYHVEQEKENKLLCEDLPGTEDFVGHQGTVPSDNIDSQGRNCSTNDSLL
ALR inh – human ALR oxidase inhibition via reduced H2O2; P55789; purified ALR, DTT oxidation, H2O2 HRP-luminol luminescence; inhibition, % (test concentration not listed); 290,000 compounds, 3.8% hits;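 active means mean and each replicate at 75% or more; inconclusive means only one of the two met; inactive means neither met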;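 further: stock transfer was 7.5 nL into about 7.5 µL; 0% = neutral wells and 100% = wells with inactivated enzyme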
Target sequence (P55789 whole entry, looked up): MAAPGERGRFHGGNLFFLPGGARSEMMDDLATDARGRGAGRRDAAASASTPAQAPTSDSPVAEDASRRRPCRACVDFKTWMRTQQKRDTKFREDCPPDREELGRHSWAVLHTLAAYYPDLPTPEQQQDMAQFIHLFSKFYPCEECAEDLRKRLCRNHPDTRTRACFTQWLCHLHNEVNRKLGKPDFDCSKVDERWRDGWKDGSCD
RanGTP-Impb inh – disruptors of Ran-importin-beta complex formation – biochemical, FRET, CFP-Ran, YFP-importin-beta, homogeneous, primary screen. cell-free CFP-Ran/YFP-importin-beta FRET ratio. inhibition, % (no concentration beside the values). 300,000 compounds, 1.1% hits;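 active means most replicates above 15%; inconclusive means exactly half above 15%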;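 further: 0% = DMSO wells and 100% = Ran loaded with GDP instead of GTP; wells of about 40 µL received 100 nL stock; the first replicate is given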
Calb FLC – C. albicans growth modulation with fluconazole. C. albicans CaCi-2 (fluconazole-resistant clinical isolate) + fluconazole, Alamar Blue growth, 48 h. growth inhibition, % (test concentration not listed). 300,000 compounds, 0.57% hits. AID 1979;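 active means most replicates above 75%; inconclusive means exactly half above 75%; inactive means most below 75%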;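 further: all wells also contain fluconazole at 8 µg/ml as a sub-toxic cotreatment; 0% = median of DMSO wells and 100% = median of geldanamycin control wells; wells of about 8 µL received 7.5 nL stock; the first replicate is given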
* = called active by the depositor; ? = inconclusive; / = no result given.

Results follow in this order: ALR inh	LANA-H2A inh	HNF4A DNA FP	Vif A3G	RanGTP-Impb inh	B2AR ag	Calb FLC
O=C1[C@@H]2Cc3c([nH]c4ccccc34)CN2C(=O)CN1CCO
    -15	-4.9	-1.2	-8%	-3.9	0	-3
Cc1nc2ccccn2c1C(=O)N=Nc1c(O)n(CCC(C)C)c2ccccc12
    2	1.2	-2.3	29%	1.4	45*	0
N#C/C(=C\c1ccc(F)cc1)C(=O)NC1CCS(=O)(=O)C1 (centres undefined)
    -6	-3.8	-0.1	/	-5.4	0	3
O=C(Cn1c(=O)n(CC2CCCO2)c(=O)c2ccccc21)N1CCN(c2ccccc2)CC1 (centres undefined)
    6	0.5	2.5	-2%	0.3	1	-3
C[C@@H]1CN([C@@H](C)CO)C(=O)c2cccc(NS(C)(=O)=O)c2O[C@H]1CN(C)C(=O)Nc1ccc(F)cc1
    3	-35	-0.5	/	/	-1	/
Cc1nn(Cc2ccc(F)cc2Cl)c(C)c1[N+](=O)[O-]
    0	-1.7	3.0	-1%	-1.3	9	7
COc1ccc2c(c1)N(C)C(=O)CC(c1ccccc1)=N2
    0	-13	2.2	19%	3.3	-10	-3
O=C(OCc1nc2ccc(Cl)cc2n1CCO)c1ccc2c(c1)OCO2
    -5	-0.2	0.3	7%	-7.3	3	15
Cc1ccc(NCC(=O)N/N=C\c2ccc([N+](=O)[O-])o2)cc1
    -15	-1.6	2.3	26%	2.5	10	7
CC(=O)c1cccc(NC(=O)CN(C)S(=O)(=O)c2ccccc2)c1
    -14	2.8	3.8	12%	-1.0	-7	-1
O=C(NN1C(=O)C2C3C=CC(C4CC34)C2C1=O)c1ccc(Br)cc1 (centres undefined)
    1	2.9	-1.2	3%	2.5	1	11
CC(C)c1ccc(S(=O)(=O)N2CCN(C(C)C(=O)Nc3ccccc3-c3ccccc3)CC2)cc1 (centres undefined)
    -2	-5.9	-0.3	-1%	0.9	3	3
CN(c1ccc(OCC(=O)OCC(=O)Nc2ccc(Br)cc2)cc1)S(=O)(=O)c1cccs1
    3	-3.5	-2.1	/	-2.7	7	-6
Cc1cc(-c2nn(-c3ccccc3F)cc2CN2CCC(O)CC2)c(C)s1
    -2	34*	12	14%	0.6	-22	5
CN(C)CCCNC1CS(=O)(=O)CC1O (centres undefined)
    /	2.6	1.1	-2%	-6.2	3	0
O=C(Cc1c(C(=O)O)[nH]c2ccccc12)NCCN1CCN(c2cccc(Cl)c2)CC1
    88*	2.7	-1.3	1%	5.8	-8	-5
CCOc1ccc(N2C(=O)CC(C(C)c3ccccc3)C2=O)cc1 (centres undefined)
    1	5.2	1.5	-3%	1.1	1	-3
NC(=O)c1nsc(C(=O)N(CC(=O)NC2CCCC2)c2ccc(F)c(Cl)c2)c1N
    -4	2.4	-0.8	-6%	3.5	-3	-8
COc1ccc(NC(=O)CSc2nnc(Cc3ccc(C)cc3)c(=O)n2N)cc1
    -3	0.8	-2.4	3%	-0.7	2	2
Nc1c(SCCC(=O)O)ccc2c1C(=O)c1ccccc1C2=O
    -2	-1.2	3.8	-2%	-4.5	1	4
O=S(=O)(NCCN1CCOCC1)c1cc(Cl)c(Cl)cc1Cl
    4	-0.7	0.1	/	2.9	-8	1
Cc1ccc(C(=O)N/C(=C\c2ccco2)C(=O)NCCc2c[nH]c3ccccc23)cc1
    -1	-2.8	1.3	/	1.3	-10	19
CC(C)c1ccc(-c2nnn(CCC(=O)O)n2)cc1
    2	-0.2	1.6	33%	?	17	-5
Cc1nc(NCCO)c2nnn(Cc3ccccc3F)c2n1
    5	-1.6	-1.8	23%	0.5	-1	-1
CC(C)[C@H](NC(=O)c1ccccc1)C(=O)OCC(=O)Nc1ccc(S(=O)(=O)N2CCOCC2)cc1
    -7	7.8	2.4	-7%	/	-2	/
CCNC(=S)N/N=C(\C)c1ccc2c(c1)OCCO2
    /	0.7	2.7	-1%	5.5	-4	-3
Cn1c(=O)n(Cc2ccccc2F)c(=O)c2c1nc1n2CCN1Cc1ccco1
    -9	-0.9	-2.6	-12%	4.2	-8	-10
COc1cc(C2/C(=C(\O)c3ccc4c(c3)OCCO4)C(=O)C(=O)N2Cc2ccco2)ccc1O (centres undefined)
    12	1.0	-0.6	2%	0.9	4	-3
CCOc1ccc(C2NC(=O)NC(c3ccccc3)=C2C(C)=O)cc1OC (centres undefined)
    -1	0.8	2.5	/	-1.6	0	8
COc1cccc(NC(=O)CN2C(=O)COc3ccc(Cl)cc32)c1
    8	-1.8	3.0	32%	2.6	3	27
O=C(CCCSc1nnc(SCCCC(=O)c2ccc(F)cc2)s1)c1ccc(F)cc1
    -3	3.5	2.6	17%	4.9	-1	4
CC[C@@]12C(=O)N(c3ccc(OC)cc3)C(=O)N1[C@H](c1cccc(C)c1)[C@@H]1C(=O)N(Cc3ccccc3)C(=O)[C@@H]12
    5	-2.0	-6.1	/	-1.1	-1	15
O=C(Cn1nnc(-c2ccccc2)n1)N/N=C/c1ccc(-c2ccc(Cl)cc2)o1
    -6	-1.8	-1.5	/	-1.2	2	-3
CCCCc1ccc(NC(=S)NCC2CCCO2)cc1 (centres undefined)
    /	4.3	-1.5	-1%	-3.9	-11	-45
COc1ccc(Cn2c(CCC(=O)Nc3ccc(C)cc3)nc3cccnc32)cc1
    -1	-1.1	-0.7	-3%	0.5	-5	0
CCC(C(=O)NCCC1=CCCCC1)c1ccccc1 (centres undefined)
    -10	1.6	0.2	2%	-2.0	3	-7
CN(C(=O)c1ccc(S(=O)(=O)N2CCCC2)cc1)C1CCS(=O)(=O)C1 (centres undefined)
    -2	12	7.2	5%	-5.3	9	0
O=C(CCCC(=O)N(c1cccc(F)c1)C(C(=O)NC1CCCC1)c1ccc(O)cc1)Nc1ccccn1 (centres undefined)
    /	9.1	1.0	-5%	-2.0	-3	1
O=C(O)CCCNC(=O)CCn1nnc2ccccc2c1=O
    0	4.6	1.5	-8%	1.8	0	-2
COc1cc(-c2cc(N)n(S(=O)(=O)c3ccccc3)n2)cc(OC)c1OC
    58	-2.5	3.1	3%	-4.0	62*	-5
Cc1ccccc1S(=O)(=O)Oc1ccc2ccc(O)cc2c1
    51	-3.1	3.8	/	1.8	28	6
O=C(O)CCN1CCc2ccccc21
    /	4.4	-1.5	?	0.1	-13	-1
CCc1ccc2oc(=O)cc(CN3CCCCC3C)c2c1 (centres undefined)
    -3	3.2	40*	5%	1.3	-1	-1
COc1ccccc1NC(=O)C(C)OC(=O)CSCC(=O)Nc1cc(C)on1 (centres undefined)
    -4	/	-0.6	-4%	/	0	/
COc1cc(-c2nc3c4ccccc4nc(=S)n3[nH]2)cc(OC)c1OC
    /	-0.4	-3.9	/	-14	2	29
COc1cccc(CN2CCN(CC(=O)NCCc3ccccc3)CC2)c1
    -2	2.4	0.1	10%	1.2	8	-7
CCOc1ccccc1C(=O)NC(C(=O)Nc1cccc(S(N)(=O)=O)c1)C(C)C (centres undefined)
    70	-5.5	1.7	1%	-2.4	-6	-4
CCCNC(=O)COc1ncnc2sccc12
    -8	-2.2	-3.7	/	-1.4	4	-23
C/C(=C\c1ccc(Cl)cc1)C(=O)c1c(C)cc(C)[nH]c1=O
    5	-9.3	3.0	/	-4.2	3	0
CC(=O)Nc1ccc(N(CC(=O)NC2CCCCC2)C(=O)Cn2nnc(-c3ccccc3)n2)cc1
    /	-4.2	-0.8	/	-2.7	-4	1
CCCCNc1c(N)n(CCC)c(=O)[nH]c1=O
    -7	-3.9	-0.4	16%	2.6	-3	-3
COc1cccc(C2=NOC(C(=O)NCc3cccs3)C2)c1 (centres undefined)
    -7	5.2	0.7	-3%	?	-12	19
CCC1(CC)Cc2ccccc2-c2nc(-c3ccccc3)oc(=O)c21
    4	12	-1.4	-4%	2.1	6	2
CN1C[C@@H]2C(c3ccccc3)C3(c4ccc(C#N)cc4)CC2(C3)[C@H]1c1ccccc1 (some centres undefined)
    /	-0.4	1.9	/	-2.3	-1	-35
COc1cc(CNCCO)cc(Cl)c1OCc1ccccc1Cl
    0	-2.0	5.5	1%	-6.2	48*	-15
COc1ccc(Cl)cc1NC(=O)C(=O)NCc1ccncc1
    -12	-2.9	3.4	-9%	-0.3	4	-8
O=C(O)CCC(=O)N1CCc2cc(S(=O)(=O)NC3CCCC3)ccc21
    -24	-0.8	6.6	4%	-3.8	11	-26
Cc1ccc(-c2ccc(=O)n(CCC(=O)N3CCN(Cc4ccccc4)CC3)n2)cc1
    3	-3.5	2.9	-10%	12	2	8
CC(C(=O)OCc1nnc(-c2ccccc2)o1)N1C(=O)C2CCCCC2C1=O (centres undefined)
    9	-9.5	3.6	/	1.0	-1	-19
Cn1c(CC(=O)Nc2ccccc2)cc2ccccc21
    -23	4.5	4.9	/	2.3	3	3

Overlap with the part before: 2 entries; new compounds follow.
Results follow in this order: ALR inh	LANA-H2A inh	HNF4A DNA FP	Vif A3G	RanGTP-Impb inh	B2AR ag	Calb FLC
CC(C(=O)OCc1nnc(-c2ccccc2)o1)N1C(=O)C2CCCCC2C1=O (centres undefined)
    9	-9.5	3.6	/	1.0	-1	-19
Cn1c(CC(=O)Nc2ccccc2)cc2ccccc21
    -23	4.5	4.9	/	2.3	3	3
O=C(NC1CCCCC1)c1cc(S(=O)(=O)N2CCCCC2)ccc1N1CCOCC1
    -1	3.3	-2.5	-8%	/	9	/
Cc1cc(C)c(S(=O)(=O)c2ccccc2C)c(SCC(C)C)n1
    -3	2.0	0.2	-5%	8.1	4	-1
COc1cccc(CNC(=O)C2CCCN(c3nn4c(=O)cc(C)nc4s3)C2)c1OC (centres undefined)
    -18	0.5	14	-3%	5.1	-6	15
COC(=O)CSc1nc(C)cc(Oc2ccccc2)n1
    -5	0.9	-0.2	1%	-2.0	11	-9
CCOC(=O)CN1C(=O)C(C)(C)Oc2ccc(C(=O)Nc3ccccc3)cc21
    -4	-0.5	-0.1	6%	-0.9	-12	-2
C=CCOc1ccc(C2C(C(=O)c3ccc(C)o3)=C(O)C(=O)N2Cc2cccnc2)cc1 (centres undefined)
    7	-2.8	1.8	/	?	2	5
CCN(C(=O)CCC(=O)N(CC)c1ccccc1)c1ccccc1
    -18	1.0	4.1	0%	-0.1	-8	-13
O=C(Nc1ccccc1C(=O)N1CCOCC1)c1ccc(F)cc1
    -3	-0.3	-1.5	21%	-11	-4	7
CCOc1ccc(NC(=O)CSc2ncn[nH]2)cc1
    -8	3.0	6.6	-2%	-2.3	1	-5
CC12CCC(C(=O)NCc3cccnc3)(OC1=O)C2(C)C (centres undefined)
    0	2.4	1.5	1%	2.2	2	16
Cc1ccc(C(=O)COC(=O)CNC(=O)CN2C(=O)c3ccccc3C2=O)cc1
    -14	-0.9	-3.7	/	5.6	-4	19
Cc1nc2ccccn2c1C(=O)NNC(=S)Nc1ccc(Cl)cc1
    87*	7.7	-3.8	11%	1.6	-3	0
c1cncc(CNCc2ccco2)c1
    7	-2.6	-19	-5%	5.8	-6	-2
Cn1cc(C(=O)NCC(=O)Nc2ccccc2Br)cn1
    -6	2.6	0.8	/	/	3	/
CCN1C(=O)C(=Cc2cccc(OC)c2Oc2ccc([N+](=O)[O-])cc2[N+](=O)[O-])SC1=S
    -14	-8.9	4.9	-2%	-0.7	23	4
O=C(NCC1CCCN1S(=O)(=O)c1cccs1)c1cccc(Cl)c1 (centres undefined)
    -15	-1.2	1.4	4%	2.6	1	0

Bioassay records: PubChem BioAssay, several laboratories
